ClpP mod – qHTS Assay for Activators of ClpP | AID 651965, 2013 | 340,000 compounds, 1.9% hits | purified B. subtilis ClpP, FRET peptide cleavage, 20 min | Potency, µM (doses to about 57.5 µM), for inactives: at the top dose activity change, negative = active | ATP-dependent Clp protease proteolytic subunit (Bacillus subtilis (strain 168)), P80244; active = well fitted falling curve with a large enough effect; inconclusive = small, poorly fitted or top-dose-only effect; inactive = no such curve, though single readings can be large or run the other way; note: potency is the fitted concentration of half-maximal effect; the source files actives as falling curves though it sought activators and does not explain the sign; nearly all actives have a fitted effect of over 65% in size; many hits overshoot -100%
Target sequence (P80244 whole entry, looked up): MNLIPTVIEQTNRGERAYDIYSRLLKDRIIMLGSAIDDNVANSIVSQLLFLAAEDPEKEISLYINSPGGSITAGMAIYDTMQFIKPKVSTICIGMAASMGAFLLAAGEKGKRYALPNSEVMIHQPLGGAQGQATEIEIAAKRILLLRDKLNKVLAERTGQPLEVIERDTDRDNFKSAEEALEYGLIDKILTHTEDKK
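Purified B. subtilis ClpP, 10 microg/mL final in Tris/HCl pH8 with KCl, BSA, glycerol and Tween-20, cleaved an Abz/nitrotyrosine-quenched decapeptide. Fluorescence (ex 320, em 430) was read at 0 and 20 min at room temperature. Delta was normalized to 5.8 microM ADEP and DMSO/no-enzyme controls.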
gsp antag – qHTS for Antagonists of gsp, the Etiologic Mutation Responsible for Fibrous Dysplasia/McCune-Albright Syndrome: qHTS. gsp-mutant cells, cAMP HTRF, 30 min; control for the full effect not named in the record. Potency, µM (highest dose often 76.9 µM), without a hit: at the top dose activity change, negative = inhibition, actives largely listed as inhibitors. 340,000 compounds, 0.4% hits. AID 624288, 2012; active = falling curve of any shape with a large fitted effect; inconclusive = falling curve, mostly with a smaller effect; inactive = flat or rising curve; cell line not stated here;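 note: intracellular cAMP measured with PDE inhibitor Ro 20-1724 present during compound exposure; potency is the fitted concentration of half-maximal effect; % is set by controls: 0 for no effect and ±100 for the full control effect; nearly all actives have a fitted effect of over 65% in size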
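Measurement of cellular cAMP by homogeneous time-resolved fluorescence following a 30 min compound exposure at 37C. The PDE inhibitor […] was present throughout; the assay buffer was DPBS with 0.05% BSA and 0.005% Tween 20.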
Menin-MLL FL inh – qHTS Assay for Inhibitors Targeting the Menin-MLL Interaction in MLL Related Leukemias: Competition With Fluorescein Labeled MLL-derived Peptide. Fluorescence polarization, fluorescein-MLL peptide displacement from menin. FP activity change, % at 61.4 µM. 290,000 tested, under 10 active. AID 1766, 2009; inconclusive = falling polarisation curve, or a change in total fluorescence; inactive = total fluorescence flat and polarisation flat or rising; no compound was filed as active; the % refers to the polarisation; negative = inhibition;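 note: % of control where 0% means no effect; inhibitors lower the polarisation; unlabelled MLL peptide was the positive control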
CtBP-E1A blk – qHTS Assay for Inhibitors of the CtBP/E1A Interaction. 340,000 compounds, 0.49% hits. AlphaScreen GST-E1A/His-CtBP binding, 1536-well; hits give low values; control for the full effect not named in the record. CtBP / adenovirus E1A interaction (AlphaScreen). activity change, % (test concentration not listed). AID 651724, 2012; in the data active means activity change below about -65%; inconclusive means about -30% to -65%; inactive means above about -30%; note: % is set by controls: 0 for no effect and ±100 for the full control effect
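Steps: dispense buffer (Tris pH 8.0, NaCl 300 mM, TCEP 1 mM, BSA, Tween 20); add 5X protein mix (GST-E1A, His-CtBP, 125 nM each); pin 23 nL compound; 2 h at 37 °C, dark; add 5X beads (50 ug/mL); 1 h; read.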
gsp ag – qHTS for Agonist of gsp, the Etiologic Mutation Responsible for Fibrous Dysplasia/McCune-Albright Syndrome: qHTS. gsp mutant cells, cAMP HTRF, 30 min; control for the full effect not named in the record. 340,000 compounds, 0.13% hits. Potency, µM (doses to about 76.9 µM), for the others: top-dose activation (cAMP increase), hits mostly activators; active = well fitted activation curve with a large enough effect; inconclusive = small, poorly fitted or top-dose-only effect, or another doubt; inactive = no such curve, though single readings can be large or run the other way; cell line not stated here;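 note: phosphodiesterase inhibitor Ro 20-1724 added with compounds to block cAMP breakdown; potency is the fitted concentration of half-maximal effect; nearly all actives have a fitted effect of over 60% in size; about a fifth of the inactives were tested at one dose only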
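Cells in DMEM/10% FBS with G418 were pretreated with compounds in DMSO plus […] (300 uM stock) for 30 min at 37C. cAMP was measured by HTRF (cAMP-d2 plus anti-cAMP antibody-K) after 30 min at room temperature.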
TRPV1 potentiator – HTS Assay for Compounds that Act as Potentiators of the Vanilloid Receptor 1. 320,000 compounds, 0.02% hits. TRPV1-expressing cells, Fluo-8 calcium influx, capsaicin EC20 potentiation; host cell line not named in the record; control for the full effect not named in the record. AID 540277, 2011. potentiation, % at 8.33 µM. Transient receptor potential cation channel subfamily V member 1 (Homo sapiens), Q8NER1; active means potentiation above 80%; inconclusive means 30% to 80%; inactive means below 30%; note: 0% is about no effect
Target sequence (Q8NER1 whole entry, looked up): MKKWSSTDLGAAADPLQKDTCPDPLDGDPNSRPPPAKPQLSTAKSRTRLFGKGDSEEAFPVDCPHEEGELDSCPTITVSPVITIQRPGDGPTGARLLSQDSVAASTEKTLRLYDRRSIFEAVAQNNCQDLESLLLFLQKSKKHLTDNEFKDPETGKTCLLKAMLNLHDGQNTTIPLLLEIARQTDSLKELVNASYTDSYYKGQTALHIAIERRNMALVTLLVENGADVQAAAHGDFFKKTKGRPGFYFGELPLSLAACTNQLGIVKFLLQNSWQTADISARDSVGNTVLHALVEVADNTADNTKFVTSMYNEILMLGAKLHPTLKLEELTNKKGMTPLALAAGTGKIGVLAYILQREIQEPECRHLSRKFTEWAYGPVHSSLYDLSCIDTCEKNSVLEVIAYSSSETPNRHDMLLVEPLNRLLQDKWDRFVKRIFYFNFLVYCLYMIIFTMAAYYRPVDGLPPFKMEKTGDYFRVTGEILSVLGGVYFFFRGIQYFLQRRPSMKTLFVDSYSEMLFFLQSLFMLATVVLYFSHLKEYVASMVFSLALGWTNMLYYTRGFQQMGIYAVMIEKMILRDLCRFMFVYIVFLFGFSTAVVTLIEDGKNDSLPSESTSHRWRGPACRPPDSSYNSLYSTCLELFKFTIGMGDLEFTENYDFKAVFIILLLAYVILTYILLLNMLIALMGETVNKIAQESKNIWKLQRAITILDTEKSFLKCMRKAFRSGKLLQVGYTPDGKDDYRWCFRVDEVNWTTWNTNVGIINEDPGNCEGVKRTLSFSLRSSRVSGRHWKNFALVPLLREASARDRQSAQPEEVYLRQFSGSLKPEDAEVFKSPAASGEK
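TRPV1-expressing cells were cultured overnight at 35.5C and loaded with Fluo-8 calcium dye for 40 to 90 min at room temperature. After a 10 s baseline, compound was added and calcium influx was read kinetically for 3 min (ex 480/em 520 nm).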
Sfp PPTase inh – qHTS Assay for Inhibitors of Bacillus subtilis Sfp phosphopantetheinyl transferase (PPTase); Potency, µM, without a hit: max response, negative = inhibition, usual class: inhibitors; 310,000 compounds, 3.5% hits; Biochemical Sfp PPTase activity, qHTS; active = well fitted inhibition curve with a large enough effect; inconclusive = small, poorly fitted or top-dose-only effect, or another doubt; inactive = no such curve, though single readings can be large or run the other way;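 note: the enzyme is Sfp with the accession as filed and its product quenches rhodamine fluorescence; potency is the fitted concentration of half-maximal effect; 0% = enzyme reaction without inhibitor and -100% = no enzyme wells; top concentration of the series not given in the record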
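With Hepes-Na pH 7.6 buffer containing 10 mM MgCl2, Sfp (15 nM) modified BHQ-2-YbbR (12.5 uM) using rhodamine-CoA (5 uM). Two reads 30 minutes apart at 525/598 nm yielded each well's rate.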
The depositor's hits bear a star; u = inconclusive; x = no result given; [ ] = dose if it differs, or a comment.

Values in the order: CtBP-E1A blk | gsp antag | TRPV1 potentiator | Menin-MLL FL inh | ClpP mod | gsp ag | Sfp PPTase inh
COc1ccccc1N(C)S(=O)(=O)c1ccc(C(=O)N(CC(N)=O)C(C)C)cc1
  8 | -1% | 14 | -1.7 | -9.8% | 0% | 4%
Cc1ccc(S(=O)(=O)N2CCOCC2)cc1C(=O)NCc1ccc2c(c1)OCO2
  1 | 0% | -6 | 0.5 | 1.8% | u | 17%
O=C1OCC2=C1C(c1ccc(Cl)cc1)c1cc3c(cc1O2)OCO3 (stereo not drawn)
  0 | u | x | x | 1.6% | 1% | x
O=[N+]([O-])c1ccc(Cl)c(C2Nc3cccc4cccc(c34)N2)c1
  -14 | -25% | 28 | 0.8 | -0.8% | 0% | u
CC(=O)NS(=O)(=O)c1ccc(N=c2ssc3c2-c2ccc(C)cc2NC3(C)C)cc1
  3 | u | 5 | x | 1.3% | -35%[inhibitor] | 9%
O=S1(=O)CC(N2CCOCC2)c2ccccc21 (stereo not drawn)
  5 | 10% | 9 | 2.8 | 0.5% | -8% | 2%
CN=Cc1nc(-c2ccccc2)oc1O
  -13 | 3% | -42 | 3.3 | -2.5% | 23% | -5%
Cc1cc(C(=O)N/N=C/c2cccs2)n[nH]1
  4 | 3% | 4 | -3.5 | x | -3%[15.4 µM] | 7%
COc1cc(C(=O)NCC(c2cccnc2)N2CCN(C)CC2)cc(OC)c1OC (stereo not drawn)
  1 | 14% | -6 | 2.7 | -0.6% | 5% | 29%
COc1ccc(NC(=O)C(C)(C)Oc2ccc(Cl)cc2)cn1
  10 | 1% | -35 | x | -0.3% | -4% | x
O=C(Cn1cc(C(F)(F)F)ccc1=O)N/N=C/c1ccc(F)cc1
  7 | -31% | -23 | 2.2 | x | -36%[15.4 µM] | 9%
Cc1ccc2c(c1)oc(=O)n2CC(=O)c1ccccc1
  6 | -2% | -15 | 2.2 | -0.1% | 6%[15.4 µM] | 7%
CCCCNC(=O)c1nnn(-c2ccccc2)c1N
  2 | 9% | 20 | -0.6 | -0.7% | 0% | 7%
C=CCn1c(SCC(O)Cn2c3ccccc3c3ccccc32)nnc1-c1ccco1 (stereo not drawn)
  -5 | -12% | -8 | 4.4 | -10% | -4% | 11%
N#Cc1cc2ccccc2nc1SCC(=O)Nc1ccccc1N1CCOCC1
  6 | 10% | -1 | 0.1 | -0.6% | -42%[inhibitor] | 14%

Additional compounds:
Values in the order: CtBP-E1A blk | gsp antag | TRPV1 potentiator | Menin-MLL FL inh | ClpP mod | gsp ag | Sfp PPTase inh
O=C(NNC(=O)c1ccc2c(=O)n3c(nc2c1)CCC3)c1ccc(Cl)cc1
  x | 5% | -5 | x | -4.9% | u | x
CCOC(=O)C1CCCN(CC(=O)Nc2c(C(=O)OC)[nH]c3ccccc23)C1 (stereo not drawn)
  3 | 2% | -18 | 0.5 | u | -24% | 7%
CCOCCCn1c(C)nc2c[n+](CC(=O)c3ccc4ccccc4c3)cc(Br)c21
  -13 | 6% | 11 | 3.1 | -1.0% | -2%[15.4 µM] | 5%
COc1ccc(CCNC(=O)COC(=O)c2ncc(Cl)c(Cl)c2Cl)cc1OC
  3 | -10% | x | x | 1.3% | u | x
CCCOc1ccc(C(=O)NNC(=O)c2cccc(S(=O)(=O)N3CCN(C(C)=O)CC3)c2)cc1OC
  6 | 9% | -2 | x | -0.6% | -37%[inhibitor] | x
OCCN(CCO)CC(O)Cn1c2ccccc2c2ccccc21 (stereo not drawn)
  6 | 15% | 15 | 2.8 | -10% | -4% | -21%
Cc1ccc(S(=O)(=O)CC(=O)NC(C)(C)C)cc1
  6 | 7% | -2 | 2.3 | 0.3% | -41%[inhibitor] | -8%
COc1cccc2nc3c(C(=O)NCCN(C)C)cccc3cc12
  1 | u | x | x | -0.5% | u | x
O=C(CCl)NCCNC(=O)c1cc(OCC(F)(F)F)ccc1OCC(F)(F)F
  x | -5% | -7 | -1.7 | x | 15%[15.4 µM] | 20%
COc1ccc(N(CC(=O)Nc2cc(C)ccc2C)S(=O)(=O)c2c(C)[nH]c(=O)[nH]c2=O)cc1
  -26 | 14% | 4 | x | 0.5% | u | 8%
O=C(N/N=C/c1ccco1)C1CC(=O)N(c2ccccc2)C1 (stereo not drawn)
  5 | 6% | 2 | -0.2 | -1.5% | 8% | 19%
CCn1cnc2cc(NCc3ccc(Cl)cc3)ccc21
  -11 | 1% | u | -1.1 | x | -1% | -11%
COc1ccc([N+](=O)[O-])cc1NC(=O)COC(=O)c1ccc(O)cc1
  2 | 7% | -2 | 2.8 | x | -2%[15.4 µM] | 7%
Cc1ccc(S(=O)(=O)N2C(=S)SCC2(C)C)cc1
  x | x | 11 | -2.4 | x | x | 0%
S=C(c1ccccc1)N(c1ccccc1)c1ccccc1
  -27 | -15% | -11 | -0.8 | 1.5% | 24% | 0%

Next compounds.
Values in the order: CtBP-E1A blk | gsp antag | TRPV1 potentiator | Menin-MLL FL inh | ClpP mod | gsp ag | Sfp PPTase inh
O=C(NCc1ccccc1)N[C@@H](Cc1ccccc1)C(=O)O
  4 | -1% | 6 | -0.2 | 0.7% | 23% | 10%
O=C(Nc1ccccc1)n1ccc(-c2ccc(-n3ccnc3)cc2)n1
  x | x | 10 | 1.0 | x | x | -11%
CCc1cc(=O)oc2cc(OC(C)C(=O)NCCCn3ccnc3)ccc12 (stereo not drawn)
  1 | 8% | -9 | 1.0 | 3.7% | -10% | 14%
CCc1cccc(C)c1NC(=O)C1CCCO1 (stereo not drawn)
  4 | 1% | -17 | 0.6 | u | -44%[inhibitor] | 14%
O=[N+]([O-])c1cc(S(=O)(=O)NCCc2ccccn2)ccc1Cl
  -5 | -1% | 1 | x | -2.3% | -65%[inhibitor] | x
COc1cc(C2Nc3ccc4ncccc4c3C3=C2C(=O)CCC3)cc(OC)c1OC (stereo not drawn)
  x | -1% | -7 | 3.0 | -17% | 17% | -7%
CSc1ncccc1C(=O)OCC(=O)NC1CCC(C)CC1 (stereo not drawn)
  x | -1% | -7 | x | -0.6% | -1% | x
CCCCn1c(N)c(N(CC)C(=O)C2=COCCO2)c(=O)[nH]c1=O
  6 | 2% | u | x | -2.9% | 1%[15.4 µM] | x
COc1ccc(/C(C)=N/NC(=S)NCCc2ccccc2)cc1
  -17 | -7% | 8 | 0.2 | x | -29% | 10%
CC(=O)C(Cc1ccccc1)NC(=O)CCl (stereo not drawn)
  -9 | -6% | 7 | 1.0 | -0.4% | -17% | 18%
O=S(=O)(NCc1ccccc1)c1ccc(NC(=S)NCc2ccco2)cc1
  x | -6% | 4 | 11 | -1.5% | 1% | -24%
COc1ccc(C2c3c(oc4ccccc4c3=O)C(=O)N2CC2CCCO2)cc1 (stereo not drawn)
  5 | 3% | u | 0.0 | -3.5% | 3% | -15%
COCCCn1c(C)c(C(C)=O)cc(NC(=O)c2ccccc2)c1=O
  8 | -6% | -22 | -1.7 | x | 5%[15.4 µM] | -6%
COCCn1c(CN2CCN(C(=O)c3ccco3)CC2)nc2c1c(=O)n(C)c(=O)n2C
  u | -5% | 15 | 0.1 | -3.1% | 18µM* | 13%
CCCc1[nH]n(-c2ccc([N+](=O)[O-])cc2)c(=O)c1C=NCCN1CCNCC1
  x | x | 3 | -4.9 | x | x | 4%

New compounds follow:
Values in the order: CtBP-E1A blk | gsp antag | TRPV1 potentiator | Menin-MLL FL inh | ClpP mod | gsp ag | Sfp PPTase inh
Cn1c(NC(=O)CCC2CCCCC2)cc(=O)n(C)c1=O
  1 | -6% | 8 | 0.2 | -0.1% | u | -8%
Cc1cc(N2CCN(C(=O)/C=C/C(=O)O)CC2)c2ccccc2n1
  x | 9% | 3 | 0.0 | 0.2% | u | 4%
COc1ccc(C(C)=O)cc1COC(=O)CCC(=O)N(CC(C)C)c1c(N)n(CC(C)C)c(=O)[nH]c1=O
  -9 | 4% | 18 | x | -3.0% | -9% | x
O=C(Nc1ccc(Oc2ccccc2)cc1)C1CCCO1 (stereo not drawn)
  9 | 4% | -31 | 0.8 | -0.5% | -65%[inhibitor] | -4%
COc1ccccc1C(=O)N1CCN(CCNC(=O)C(=O)Nc2ccc(Br)c(C)c2)CC1
  -6 | -20% | 0 | x | 0.0% | 7% | -3%
COc1cccc(N2CCN(S(=O)(=O)c3c(C)[nH]c(C)c3C(=O)N3CCCCC3)CC2)c1
  -19 | 7% | 10 | -1.3 | -2.2% | u | 18%
O=C(CCc1n[nH]c(=O)[nH]c1=O)N/N=C/c1ccco1
  -3 | 8% | -7 | 1.7 | x | -2% | 5%
CC(C)c1nnc(NC(=O)c2c(O)c3cccc4c3n(c2=O)CCC4)s1
  -5 | u | 2 | 1.8 | -0.3% | 3% | 3%
COc1ccc(CNC(=O)Cn2ccc([N+](=O)[O-])n2)cc1OC
  2 | 10% | 0 | 5.5 | x | 15% | 3%
COc1ccccc1/C=C(/C(=O)OCC(=O)Nc1ccccc1C)c1ccccc1
  7 | 1% | 3 | -4.9 | -1.8% | u | -20%
Cc1noc(NS(=O)(=O)c2ccc(NC(=O)CSc3n[nH]c(-c4ccccc4)n3)cc2)c1C
  -20 | 11% | 18 | -2.3 | -0.2% | -10% | -9%
O=C(CSCCNS(=O)(=O)c1ccccc1)Nc1ccccc1
  -5 | 13% | x | 0.7 | -14% | -42%[inhibitor] | 16%
CCC(=O)n1nc(NCc2ccc(OC)c(OC)c2)nc1NCc1ccc(OC)c(OC)c1
  -3 | -1% | 4 | -1.5 | -1.4% | u | 11%

Screens (PubChem)
